High-throughput results: PubChem BioAssay, National Center for Advancing Translational Sciences (NCATS)
HTT prom inh – Primary qHTS for Identification of Small Molecule Inhibitors of Huntingtin Promoter Activity. HEK293 HTT promoter firefly luciferase reporter (activity 0% = vehicle and -100% = no light), 24 h. Potency, µM (highest dose often 57.5 µM), for inactives: at the highest dose activity change, negative = inhibition, actives largely listed as inhibitors. actives 0.93% (n = 48,000). AID 1508623, 2021; active means well fitted inhibition curve with a large enough effect; inconclusive means small, poorly fitted or top-dose-only effect; inactive means no such curve, though single readings can be large or run the other way; further: nearly all actives have a fitted effect of over 50% in size
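Firefly luciferase signal from promoter-reporter HEK293 cells was scaled between vehicle (0%) and zero RLU (-100%). Compounds were tested at final concentrations of up to 57.5 uM over 24 h at 37 degrees C. PTC124 at 50 uM final served as control inhibitor.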
PMP22 txn – Cell-based coincidence reporter assay to measure PMP22 gene transcription in S16 Pmp22-F2sN cells - Primary screen. S16 Pmp22-F2sN Schwann cells (luciferase reporters placed in the Pmp22 gene), FLuc/NLuc coincidence luminescence, 24 h. Potency, µM (titrated, usually from 57.5 µM), for inactives: at the highest dose activity change, negative = inhibition, hits mostly inhibitors. actives 2% (n = 43,000); active = clear falling dose curves in both reporters; inconclusive = both reporters move, but less clearly or upward; inactive = either reporter flat; the % is the NLuc reporter signal; further: on the % scale 0 is the no-effect control and ±100 the full control effect; some results filed as inactive show a strong effect at the top dose
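Luminescent read-out of sequential FLuc and NLuc signals from a reporter embedded in the Pmp22 3' UTR of S16 Schwann cells, taken after 24 h compound exposure at 37C; compounds reducing both signals score as inhibitors of expression.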
* marks the source's active call; other numbers are inactive results; ? = inconclusive; / = no result given; & = joins results of further samples; [ ] = another dose, or the depositor's remark. Potency means the concentration at half of the fitted maximal effect.

SMILES	HTT prom inh	PMP22 txn
CC(O)(C#Cc1ccc2c(c1)N(c1nc(N)ncc1Cl)CC2)c1nccs1 (stereo not given)	?	/
CCCCOc1cccc(C(=O)N(Cc2ccc(C)o2)c2ccccn2)c1	28.2µM*	?
CCCn1c2ccc(C)cc2c2nnc(SCCN3CCCCC3)nc21	0.0%	?
COc1ccc(NC(=O)C2CCN(S(=O)(=O)c3ccc4[nH]c5c(c4c3)CCCCC5)CC2)cc1	?	?
O=C(COc1ccccc1)Nc1ccc(S(=O)(=O)N(Cc2ccccc2)c2ccccc2)cc1	-7.4%	-9.0%
COc1ccc(CNC(=O)Cn2c(SCC(=O)Nc3ccc(OC)cc3)nc3ccccc32)cc1	-15.0%	?
CC1=C(C(=O)Nc2ccccc2)C(c2ccccn2)n2nc(SCc3ccccc3Cl)nc2N1 (stereo not given)	-3.1%	?
Cc1ccc(-c2nn3c(C)nnc3c3ccccc23)cc1S(=O)(=O)NCC(C)O (stereo not given)	29.1%	-24.7%
CCCOC(=O)c1ccc(Nc2c(C(=O)OCC)cnc3c(C)cc(Cl)cc23)cc1	-13.8%	-22.3%
COc1nnc(-c2ccc(N3CCCCC3)c(NC(=O)c3ccc(C)cc3)c2)c2ccccc12	-16.0%	-26.5%
CCN1CCc2c(sc(NC(=O)c3ccc(S(=O)(=O)N(CCOC)CCOC)cc3)c2C(N)=O)C1	-2.1%	-3.0%
Cn1cc(S(=O)(=O)c2ccc(Cl)cc2)c(=O)c2cc(F)c(N3CCCC3)cc21	-17.4%	-15.9%
COc1ccc(N(CC(=O)N2CCN(c3ccccc3F)CC2)S(=O)(=O)c2c(C)n[nH]c2C)cc1	-8.0%	10.4%
Cc1cc(C)cc(C(=O)Nc2c3c(nn2-c2ccccc2C)CS(=O)(=O)C3)c1	-7.7%	-8.1%
Cc1ccc(C)c(NC(=O)C(NS(=O)(=O)c2ccc3c(c2)CCC(=O)N3)c2ccccc2)c1 (stereo not given)	-16.6%	-11.9%
COc1ccc(-c2nc(SCC(=O)NCCc3ccccc3)n[nH]2)cc1	-13.2%	-0.3%
COc1cc(NC(=O)c2cc(S(=O)(=O)N3CCC(C)CC3)cn2C)cc(OC)c1OC	-7.8%	-4.5%
COCCCN1C(=O)c2ccccc2CC1(C)C(=O)NC1CCCCC1 (stereo not given)	-14.7%	2.1%
COC(=O)c1ccc(OCC2c3cc(OC)c(OC)cc3CCN2C(=O)COc2ccc(Cl)cc2)cc1 (stereo not given)	-26.1%	-25.5%
COc1ccc(OC)c(NC(=O)CSc2ccc(-c3sc(C)nc3C)nn2)c1	?	?
COc1ccccc1NC(=O)CN1C(=O)C(c2ccc(F)cc2)=NC1(C)C	?	-9.0%
Cc1cc(C)c(NC(=O)Cn2nc3c(cc2=O)CCCC3)c(C)c1	2.3%	-15.9%
Cc1nn(-c2ccccc2)c2c1cc1c(=O)[nH]c(=O)nc-1n2-c1cccc(C(F)(F)F)c1	-8.3%	-8.5%
CCc1ccccc1OCC(=O)Nc1ccc(S(=O)(=O)Nc2nc(C)cc(C)n2)cc1	-13.1%	-2.9%
Cc1ccc(C(=O)c2oc3ccccc3c2NC(=O)COc2ccccc2C)cc1	10.8%	?
Cc1ccc(OCCn2c(C3CC(=O)N(Cc4ccc(F)cc4)C3)nc3ccccc32)c(C)c1 (stereo not given)	?	?
Cc1ccc(NC(=O)CN2CCN(c3ccccc3F)CC2)cc1F	-2.8%	-15.3%
Cc1ccc(-n2c(=O)c3c4c(sc3n(CC(=O)Nc3ccccc3C)c2=O)CCCCC4)cc1C	-9.2%	-1.4%
COc1cc(C2c3c(oc4ccc(C)cc4c3=O)C(=O)N2Cc2ccccc2)ccc1O (stereo not given)	-7.6%	2.9%
O=c1c2cccnc2n(Cc2cccc(F)c2)c(=O)n1Cc1ccccc1Cl	-19.4%	14.6%
Cc1ccc(NC(=O)Cc2c(C(=O)O)c(C)cn2C)cc1Cl	4.1%	-5.6%
Cc1ccc(-c2nc3ccccn3c2Nc2c(C)cccc2C)o1	-29.8%	?
CCN(CC)S(=O)(=O)c1ccc2oc(C(=O)NCc3ccccc3OC)c(C)c2c1	?	?
CC(C)CSc1ccccc1NC(=O)c1sc2nc(-c3ccncc3)ccc2c1N	-9.8%	-18.0%
CC1CCN(CC2CCN(C(=O)Nc3ccc(Br)cc3F)CC2)CC1	-2.8%	11.3%
CCN(CC)C(=O)CSc1nc2ccsc2c(=O)n1Cc1ccccc1Cl	?	-22.1%
CCn1c(CC2C(=O)N(C)c3ccc(Br)cc32)nc2ccccc2c1=O (stereo not given)	-11.3%	?
CCc1ccc(-c2cn3c(n2)sc2cc(C(=O)NCCC4=CCCCC4)ccc23)cc1	3.0%	-69.3%
Cc1ccc(OCC(=O)Nc2ccc3c(c2)sc(=O)n3C)cc1	-5.6%	-7.2%
CCc1cccc(NC(=O)C2CCC(CNS(=O)(=O)c3ccc(Br)s3)CC2)c1 (stereo not given)	?	-2.6%
CC(C)Cc1nn2c(=O)cc(COC(=O)c3cccc(NS(C)(=O)=O)c3)nc2s1	-5.9%	?
Cc1cc(C)cc(N2CC(c3nc(-c4cccc(Cl)c4)no3)CC2=O)c1 (stereo not given)	-31.8%	-5.8%
O=C(CCS(=O)(=O)c1cc2c(cc1Cl)NC(=O)CO2)NCCc1ccccc1	-5.3%	-29.3%
O=c1c2cnn(-c3ccc(Cl)cc3)c2ncn1Cc1ccc(Cl)cc1Cl	-1.9%	-22.4%
CCN1CCN(c2cc(C)c3cc(NC(=O)/C=C/c4cccc(Cl)c4)ccc3n2)CC1	?	?
CCS(=O)(=O)N1CCc2cc(C(=O)Nc3ccc(Br)cc3F)ccc21	?	?
Fc1ccccc1N1CCN(c2ncnc3c2nc2n3CCCCC2)CC1	?	-17.3%
O=C(CSc1c2c(nc3cc(Cl)ccc13)CCCC2)N1CCN(c2ccccc2)CC1	?	?
CCOc1ccc(C(=O)N2CC(=O)Nc3ccc(F)cc3C2c2ccc(F)cc2)cc1 (stereo not given)	-17.4%	-1.2%
CCOC(=O)c1ccc(NC(=O)C2CC(=O)NC(=Nc3ccc(C)c(C)c3)S2)cc1 (stereo not given)	-28.2%	-24.1%
CN1CCN(C(=O)c2ccc3c(c2)N(Cc2ccc(Cl)cc2)C(=O)c2ccccc2S3(=O)=O)CC1	-9.2%	?
O=C(Nc1nc2n(n1)C(c1ccc(F)cc1)C=C(c1ccccc1)N2)c1cccc([N+](=O)[O-])c1 (stereo not given)	?	?
O=C(CSc1nc2c([nH]c3ccccc32)c(=O)n1-c1ccccc1)N1CCCc2ccccc21	7.5%	?
Cc1ccc(O)c(C(CCN(C(C)C)C(C)C)c2ccccc2)c1 (stereo not given)	-0.4%	/
Cc1ccc(C)c(OCCn2cc(C(=O)c3ccco3)c3ccccc32)c1	-3.0%	?
CN(c1ccccc1)c1ncnc2c1cnn2C	23.5%	-26.2%
O=C(c1ccc2c(c1)N(Cc1ccccc1F)C(=O)c1ccccc1S2(=O)=O)N1CCCC1	-7.5%	7.5%
COc1cccc(NC(=O)Nc2cccc(-c3cn4cccnc4n3)c2)c1	6.7%	-103.0%
CCN(CCCNC(=O)Cn1ncc2c([nH]c3ccc(C)cc32)c1=O)c1ccccc1	-1.7%	-5.1%
Cc1nc2sccn2c(=O)c1S(=O)(=O)N1CCN(c2ccc(F)cc2)CC1	-9.9%	-4.8%

The list continues:
SMILES	HTT prom inh	PMP22 txn
Cc1ccc(Nc2nc(C(N)=O)c(NC(=O)c3ccccc3Br)s2)cc1	3.1%	?
O=C(NC1CC(=O)N(c2cccc(F)c2)C1)C1CCCCC1 (stereo not given)	-7.4%	9.9%
Cc1ccc(CN2CCc3nc(Nc4ccc5c(c4)OCCO5)ncc3C2)cc1	-12.1%	-51.8%
O=C(Cn1c(=O)n(-c2ccccc2)c(=O)c2ccc(C(=O)NCc3ccc4c(c3)OCO4)cc21)Nc1ccc(Br)cc1	-28.4%	?
COc1ccc(-c2noc(CN(C(=O)COc3cc(C)c(Br)c(C)c3)C(C)C)n2)cc1	?	?
O=C(Cn1cc(S(=O)(=O)c2ccccc2)c(=O)c2cc3c(cc21)OCO3)Nc1ccccc1	-25.7%	-12.7%
COc1cc(OC)cc(-c2nc3nc(C)c(CCC(=O)Nc4ccc(F)cc4F)c(C)n3n2)c1	-32.1%	-16.4%
Cc1cc2nc3ccc(=[N+](C)C)cc-3sc2cc1N	-11.8%	/
O=P(O)(O)OCC(O)CO (stereo not given)	-0.7%	/
Cc1ccc(OCC(=O)NCC2(N3CCN(C)CC3)CCCCC2)cc1	-2.9%	-35.5%
Cc1c(Cl)cccc1NC(=O)c1ccc2snnc2c1	-0.6%	-14.2%
COc1ccc(S(=O)(=O)NCCc2csc(-c3ccc(F)cc3)n2)cc1F	-14.5%	-11.5%
CCn1c(=O)cc(OCC(=O)Nc2cc(Cl)c(OC)cc2OC)c2ccccc21	-5.4%	-10.1%
Cc1cc(C)cc(NC(=O)CN2C(=O)c3ccccc3Sc3ccc(C(=O)N4CCCC4)cc32)c1	-27.2%	?
COc1cc(C(=O)Nc2ccccc2-c2nc(-c3ccccc3)no2)cc(OC)c1OC	2.6%	-16.1%
COc1ccc(CCNC(=O)C2COc3ccccc3C2)cc1OC (stereo not given)	-16.6%	-1.9%
CCCNC(=O)C1CCN(c2cc(C)nc3c(-c4ccc(OC)c(OC)c4)c(C)nn23)CC1	21.0%	-109.6%
Cc1ccc(CNC(=O)CN(c2cc(C)cc(C)c2)S(=O)(=O)c2c(C)noc2C)cc1	5.2%	?
CC1=C(C(N)=O)C(c2ccc(F)cc2)n2nc(-c3ccccc3Cl)nc2N1 (stereo not given)	-15.1%	-4.5%
O=C(CSc1oc(-c2ccco2)nc1S(=O)(=O)c1ccc(Br)cc1)c1ccc(Cl)cc1	?	-9.6%

Arranged by SMILES length (low to high): six of the compounds above
SMILES	HTT prom inh	PMP22 txn
COc1ccc(S(=O)(=O)NCCc2csc(-c3ccc(F)cc3)n2)cc1F	-14.5%	-11.5%
CCn1c(=O)cc(OCC(=O)Nc2cc(Cl)c(OC)cc2OC)c2ccccc21	-5.4%	-10.1%
CC1=C(C(N)=O)C(c2ccc(F)cc2)n2nc(-c3ccccc3Cl)nc2N1 (stereo not given)	-15.1%	-4.5%
CCCNC(=O)C1CCN(c2cc(C)nc3c(-c4ccc(OC)c(OC)c4)c(C)nn23)CC1	21.0%	-109.6%
O=C(Cn1cc(S(=O)(=O)c2ccccc2)c(=O)c2cc3c(cc21)OCO3)Nc1ccccc1	-25.7%	-12.7%
O=C(Cn1c(=O)n(-c2ccccc2)c(=O)c2ccc(C(=O)NCc3ccc4c(c3)OCO4)cc21)Nc1ccc(Br)cc1	-28.4%	?

(continued)
SMILES	HTT prom inh	PMP22 txn
CCC(C(=O)NC1CCC(C)CC1)n1nc(C)c2sc3ccccc3c2c1=O (stereo not given)	44.5%[activator]	-1.8%
COc1ccc(-c2[nH]ncc2C(=O)NCc2cccc(Cl)c2)cc1	?	1.1%
Cc1ccc(CNC(=O)Cn2c(=O)n(-c3ccccc3)c(=O)c3c2c2cc(C)ccc2n3C)cc1	-12.1%	-10.2%
COc1ccc(CC(=O)N2CC(=O)Nc3ccc(Br)cc3C2c2ccc(F)cc2)cc1OC (stereo not given)	-17.3%	-19.4%
COc1cccc(-c2ccnc3c(-c4ccc(F)cc4)c(C)nn23)c1	9.0%	-34.1%
O=C(Nc1ccccc1)OCC(CN1CCCCC1)OC(=O)Nc1ccccc1 (stereo not given)	?	/
COc1ccc(CCNC(=O)c2nn(C)c3c2CSc2ccccc2-3)cc1OC	?	?
O=C(Nc1ccc(F)cc1)c1ccc2c(=O)n3c(nc2c1)CCCCC3	11.3%	-29.5%
CCOc1ccc(-c2nnc(SCC(=O)NCCc3ccccc3)nc2-c2ccc(OCC)cc2)cc1	4.3%	-4.2%
CCc1ccc(CNC(=O)CN2C(=O)c3cccnc3Oc3ccc(C)cc32)cc1	4.2%	-2.2%
Cc1ccc(CNS(=O)(=O)c2cc3[nH]c(=O)c(=O)[nH]c3cc2C)cc1	-1.4%	12.0%
CCC(C)NC(=O)Cn1c(=O)n(-c2ccc(Cl)cc2)c(=O)c2c3c(sc21)CCCC3 (stereo not given)	-9.6%	-0.7%
COc1ccc(C(=O)/C=C/c2cn(CC(O)CN(CC(C)C)CC(C)C)c3ccccc23)cc1 (stereo not given)	?	?
COc1ccc(N2CC(NC(=O)c3ccc(OC(C)C)cc3)CC2=O)cc1 (stereo not given)	-13.9%	18.7%
CN(C)C(=O)C(CCN1CCC(O)(c2ccc(Cl)cc2)CC1)(c1ccccc1)c1ccccc1	-26.1%&-7.1%	/
Cc1nc2nc(CNC(=O)OC(C)(C)C)nn2c(C)c1CCC(=O)NCc1ccc(F)cc1	-2.5%	-1.1%
Cc1cccc(-n2c(C)cc(C(=O)C(=O)Nc3nncs3)c2C)c1	5.8%	27.7%
Cc1cc(C)c2c(CC(=O)Nc3c(C(=O)Nc4ccc(Cl)cc4)oc4ccccc34)coc2c1	26.5%	?
